CSC inhib: blocks cancer stem cells. cancer stem cell-like cells viability, luminescence. inhibition, % at 7.5 µM. 1.1% of 300,000 active. AID 2717;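 active means mean at 75% or more and at least half the replicates too; inconclusive means mean and replicates disagree; tested in HMLE shEcad cells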;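 further: 0% = median of negative and 100% = median of positive control wells; the first replicate is given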
MT1-MMP act inh: inhibitors of human MT1-MMP activation; AID 651647; 0.061% of 360,000 active; P50281; HT1080 RFP-PRO-GFP cells, GFP/RFP ratio fluorescence, overnight; percent of plate control window, DMSO zero; GFP/RFP ratio change, % at 20 µM;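 active means GFP/RFP ratio change of at least 30% with cell ATP level not reduced by more than half and red fluorescence within 50% of control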; further: strong numbers were not always called active
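Assay system: HT1080 RFP-PRO-GFP cells. Benchmarks: DMSO vehicle wells and RFP-L50D-GFP reporter cell wells. Times: overnight cell settling, then overnight compound exposure, 37 °C, 5% CO2. Compound: 20 µM single dose, 1% DMSO. Read-out basis: GFP/RFP fluorescence ratio.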
Rce1 inh: inhibitors of yeast Ras-converting enzyme | Q03530 | yeast membranes, quenched prenylated peptide cleavage fluorescence | calls only | 0.27% of 290,000 active | AID 2563;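 active means fall in fluorescence gain of 50% or more versus controls, with final raw signal at or below 3038400; inconclusive means same 50% fall but final raw signal above 3038400; inactive means fall in fluorescence gain under 50%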;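 further: plate controls were neutral control wells for no effect and wells lacking membranes for full effect; tested at 10 µM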
Target sequence (Q03530 whole entry, looked up): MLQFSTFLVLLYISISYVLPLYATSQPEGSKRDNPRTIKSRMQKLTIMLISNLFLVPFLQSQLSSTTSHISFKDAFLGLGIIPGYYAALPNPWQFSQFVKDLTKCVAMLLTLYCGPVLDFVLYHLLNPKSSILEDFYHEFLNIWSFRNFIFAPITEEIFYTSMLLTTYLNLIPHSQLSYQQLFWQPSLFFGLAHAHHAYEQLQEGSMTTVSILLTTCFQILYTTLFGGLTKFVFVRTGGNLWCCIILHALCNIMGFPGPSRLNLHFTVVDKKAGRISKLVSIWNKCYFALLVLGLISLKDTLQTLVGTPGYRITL
Env fusion inh: inhibitors of HIV Env-mediated cell fusion. 1.1% of 360,000 active. inhibition, % at 12.3 µM. HeLa-JRFL Env/CEM21 cell fusion, luciferase;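 active means mean replicate inhibition score of at least 50 and every replicate individually at or above 50; inconclusive means only one of the two criteria met; inactive means mean below 50 and not all replicates reaching 50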;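 further: 0% = plate neutral controls and 100% = maraviroc near 300 nM; one replicate is shown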
eIF4H FP inh: inhibitors of RNA binding by human eIF4H; inhibition, % at 35 µM; eIF4H fluorescence polarization binding assay; Q15056; 0.94% of 290,000 active;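 active means 50% or more with normal probe brightness, or confirmed in later tests; inconclusive means above 50% with abnormal brightness, or retests that disagree; inactive means below 50% or failed in later tests; about a fifth of its hits are not listed in these tables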;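 further: calls also rest on retests at 20 µM and on dose response follow-up; 0% = protein and probe with vehicle and 100% = probe without protein; strong numbers were not always called active; many hits fall short of the cut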
PABP FP inh: PABP-poly(A) binding inhibition. P11940. PABP-poly(A) RNA binding, fluorescence polarization. inhibition, % at 35 µM. 1% of 290,000 active. AID 2014;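 active means 50% or more with normal probe brightness, or confirmed in later tests; inconclusive means above 50% with abnormal brightness, or retests that disagree; inactive means below 50% or failed in later tests; about a fifth of its hits are not listed in these tables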;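 further: calls also rest on retests at 20 µM and on dose response follow-up; controls were probe without protein and protein plus probe with vehicle; some compounds called inactive have numbers as strong as hits; many hits fall short of the cut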
Target sequence (P11940 whole entry, looked up): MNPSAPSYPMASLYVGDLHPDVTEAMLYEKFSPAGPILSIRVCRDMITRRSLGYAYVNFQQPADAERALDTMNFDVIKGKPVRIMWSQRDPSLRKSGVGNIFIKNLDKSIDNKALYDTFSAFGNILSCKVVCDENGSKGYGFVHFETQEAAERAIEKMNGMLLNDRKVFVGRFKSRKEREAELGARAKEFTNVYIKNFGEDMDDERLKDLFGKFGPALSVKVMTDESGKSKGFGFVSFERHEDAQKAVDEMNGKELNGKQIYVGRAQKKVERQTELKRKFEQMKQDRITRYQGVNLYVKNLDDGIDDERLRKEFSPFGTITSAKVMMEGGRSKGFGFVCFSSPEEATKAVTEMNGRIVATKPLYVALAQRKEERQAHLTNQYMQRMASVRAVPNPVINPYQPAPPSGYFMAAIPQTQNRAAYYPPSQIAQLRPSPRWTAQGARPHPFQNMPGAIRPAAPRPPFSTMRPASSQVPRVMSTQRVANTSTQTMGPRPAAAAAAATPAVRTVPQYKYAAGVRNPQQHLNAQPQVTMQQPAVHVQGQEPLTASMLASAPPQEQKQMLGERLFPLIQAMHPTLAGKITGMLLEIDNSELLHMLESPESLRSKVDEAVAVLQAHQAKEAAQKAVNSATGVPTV
Yeast UUG start: yeast start codon fidelity modulation. S. cerevisiae UUG-firefly luciferase reporter, luminescence/redox ratio. activity score, % at 18.7 µM. 0.13% of 350,000 active. AID 602363;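 active means replicate mean at a twofold rise or more, about +100% in these data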;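 further: firefly luciferase made from a UUG start codon reports start codon fidelity; reporter light over untreated wells divided by growth signal over untreated wells; some hits fall short of that in this replicate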
MT1-MMP act inh RFP: recorded beside MT1-MMP act inh, whose call it bears; RFP signal change, %; measured here: RFP expression control read;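 0 = vehicle wells; hits needed this value within 50% of zero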
Active calls of the source: *; i = inactive; ? = inconclusive; nt = no result given; & = joins results of further samples. The list is partial; the hit share may differ from the screen's.

SMILES | CSC inhib | MT1-MMP act inh | MT1-MMP act inh RFP | Rce1 inh | Env fusion inh | eIF4H FP inh | PABP FP inh | Yeast UUG start
Cc1ccc(S(=O)(=O)c2nc(/C=C/c3ccccc3)oc2N2CCC(C(N)=O)CC2)cc1 | nt | -9 | -4 | nt | 22 | nt | nt | -2
CN(CC(=O)Nc1ccccc1C(=O)NC1CC1)Cc1ccc(Cl)s1 | 19 | 3 | 0 | nt | nt | nt | nt | 1
Cc1cccc(Cn2nc(-n3cccc3)c3c(C)cc(C)nc32)c1 | 8 | -4 | -3 | i | 13 | 1 | 7 | nt
OCCCn1c(-c2ccccc2)csc1=Nc1ccccc1 | 25 | 0 | -7 | i | 24 | -15 | -20 | -11
COC(=O)c1cc2n(n1)CCN(Cc1ccc(C)cc1)C2=O | 0 | -1 | -2 | i | nt | 2 | -8 | -43
COc1ccccc1CCNC(=O)C1CC(=O)N(c2ccccc2F)C1 (stereo not drawn) | nt | 0 | -1 | nt | 1 | nt | nt | -6
CC(=O)Nc1ccc(S(=O)(=O)N2CCC(c3nc4ccccc4[nH]3)CC2)cc1 | nt | 4 | -1 | i | -29 | 4 | 19 | -19
Cc1c(NC(=O)C(Sc2ccccc2)c2ccccc2)cccc1[N+](=O)[O-] (stereo not drawn) | -8 | -4 | -6 | i | nt | -10 | -2 | -12
CN(C)C(CNC(=O)c1cnc(Cl)c(Cl)c1)c1ccccc1 (stereo not drawn) | -11 | 0 | 1 | i | -11 | 17 | 4 | 9
O=C(NC1CCCC1)C(c1cccnc1)N(C(=O)c1ccco1)c1cccc(F)c1 (stereo not drawn) | -17 | 0 | 3 | i | 0 | -12 | -8 | -16
O=C(COC(=O)c1ccc(Cl)nc1)Nc1cccc(S(=O)(=O)N2CCCCC2)c1 | 1 | 14 | 0 | nt | nt | nt | nt | -3
CCCOc1ccc(-c2c(C(=O)N/N=C/c3ccc(C)o3)nnn2-c2nonc2N)cc1 | -9 | 1 | 2 | i | 1 | nt | nt | -17
c1ccc(OCCCCN2CCOCC2)cc1 | nt | 14 | 4 | i | nt | -6 | 12 | -17
Cc1cc(NC(=O)CCNS(=O)(=O)c2ccc3[nH]c(=O)oc3c2)ccc1Br | -3 | 1 | -3 | i | 3 | 0 | 13 | 1
Cc1ccc(C(=O)NC(=S)N2CCN(c3ccccc3F)CC2)cc1 | 8 | 0 | 0 | i | nt | 2 | -2 | -24

Among those listed so far, 7 contain a halogen:
SMILES | CSC inhib | MT1-MMP act inh | MT1-MMP act inh RFP | Rce1 inh | Env fusion inh | eIF4H FP inh | PABP FP inh | Yeast UUG start
CN(CC(=O)Nc1ccccc1C(=O)NC1CC1)Cc1ccc(Cl)s1 | 19 | 3 | 0 | nt | nt | nt | nt | 1
COc1ccccc1CCNC(=O)C1CC(=O)N(c2ccccc2F)C1 (stereo not drawn) | nt | 0 | -1 | nt | 1 | nt | nt | -6
CN(C)C(CNC(=O)c1cnc(Cl)c(Cl)c1)c1ccccc1 (stereo not drawn) | -11 | 0 | 1 | i | -11 | 17 | 4 | 9
O=C(NC1CCCC1)C(c1cccnc1)N(C(=O)c1ccco1)c1cccc(F)c1 (stereo not drawn) | -17 | 0 | 3 | i | 0 | -12 | -8 | -16
O=C(COC(=O)c1ccc(Cl)nc1)Nc1cccc(S(=O)(=O)N2CCCCC2)c1 | 1 | 14 | 0 | nt | nt | nt | nt | -3
Cc1cc(NC(=O)CCNS(=O)(=O)c2ccc3[nH]c(=O)oc3c2)ccc1Br | -3 | 1 | -3 | i | 3 | 0 | 13 | 1
Cc1ccc(C(=O)NC(=S)N2CCN(c3ccccc3F)CC2)cc1 | 8 | 0 | 0 | i | nt | 2 | -2 | -24

Additional results
SMILES | CSC inhib | MT1-MMP act inh | MT1-MMP act inh RFP | Rce1 inh | Env fusion inh | eIF4H FP inh | PABP FP inh | Yeast UUG start
COC(=O)[C@H](Cc1ccccc1)NC(=O)NCC1CCCO1 (stereo partly drawn) | -2 | 2 | 4 | i | -27 | -2 | -1 | -17
CC(=O)Nc1cccc(-c2ccnc3c2CC(C(=O)Nc2cccnc2)O3)c1 (stereo not drawn) | nt | 1 | -1 | nt | -2 | nt | nt | -9
O=C(COC(=O)c1ccccc1C(=O)c1ccc(Cl)cc1)NCCc1ccccc1 | 1 | -4 | 0 | i | 22 | -3 | 5 | -2
C[C@H](NC(=O)c1nc[nH]c1C(=O)N[C@@H](C)c1ccccc1)C(=O)OC(C)(C)C | -17 | 4 | 2 | i | 2 | 6 | -3 | -8
COc1cc(OC)cc(C(=O)N[C@H](C(=O)Nc2nc(-c3ccc(OC)c(OC)c3)cs2)C(C)C)c1 | 11 | -32 | -43 | i | 25 | 5 | -4 | -12
O=C(O)C1=NN(c2ccccc2)C(=O)CC1 | -18 | 2 | 6 | i | 0 | 0 | 4 | -25
CC1CCCC(C)N1C(=O)c1ccc(CS(=O)(=O)c2ccccc2)cc1 (stereo not drawn) | 28 | -3 | -3 | i | 3 | -17 | 3 | -2
CCN1/C(=c2/s/c(=C3/C(=O)N(c4ccccc4)N=C3C)n(CC)c2=O)C=Cc2ccccc21 | 3 | 10 | 4 | i | -24 | nt | nt | nt
CCN(CC)S(=O)(=O)N1CCC(C(=O)NCc2ccc3c(c2)OCO3)CC1 | -21 | 2 | 3 | i | 0 | -2 | -1 | 24
Cc1ccccc1-c1ccc2c(c1)O[C@@H](CN(C)C(=O)Nc1ccc(C(F)(F)F)cc1)[C@H](C)CN([C@@H](C)CO)S2(=O)=O | nt | -7 | -12 | nt | -33 | nt | nt | -6&4
CCC1Oc2ccccc2N(CC(=O)NCCC2=CCCCC2)C1=O (stereo not drawn) | 10 | 4 | 1 | i | 21 | 5 | 1 | -4
CCCN=C1N(CC)C[C@@H]2[C@@H]3C(=O)N(Cc4ccccc4)C(=O)[C@@H]3[C@](Cc3ccccc3)(C(=O)OC)N12 | nt | 1 | 5 | nt | -20 | nt | nt | -14
C/C(=N/OC(=O)C1CC1)c1cc(-c2ccc(Cl)cc2)no1 | -5 | 1 | 0 | i | -60 | -16 | 1 | nt
CC(=O)Nc1ccc(N(C(=O)c2ccco2)C(C(=O)NC2CCCC2)c2ccc(N(C)C)cc2)cc1 (stereo not drawn) | 1 | 0 | 3 | i | 9 | 11 | 8 | 4
O=C(CN1CCOCC1)NC1CC2CCC1C2 (stereo not drawn) | 0 | 2 | 6 | i | nt | 2 | -1 | -29

Complete entries, looked up by structure. Order of values: CSC inhib, MT1-MMP act inh, MT1-MMP act inh RFP, Rce1 inh, Env fusion inh, eIF4H FP inh, PABP FP inh, Yeast UUG start
CC(=O)Nc1ccc(N(C(=O)c2ccco2)C(C(=O)NC2CCCC2)c2ccc(N(C)C)cc2)cc1 (stereo not drawn) in the list: 1, 0, 3, i, 9, 11, 8, 4
CCCN=C1N(CC)C[C@@H]2[C@@H]3C(=O)N(Cc4ccccc4)C(=O)[C@@H]3[C@](Cc3ccccc3)(C(=O)OC)N12 in the list: nt, 1, 5, nt, -20, nt, nt, -14
C/C(=N/OC(=O)C1CC1)c1cc(-c2ccc(Cl)cc2)no1 in the list: -5, 1, 0, i, -60, -16, 1, nt
C[C@H](NC(=O)c1nc[nH]c1C(=O)N[C@@H](C)c1ccccc1)C(=O)OC(C)(C)C in the list: -17, 4, 2, i, 2, 6, -3, -8
COC(=O)[C@H](Cc1ccccc1)NC(=O)NCC1CCCO1 (stereo partly drawn) in the list: -2, 2, 4, i, -27, -2, -1, -17

Next structures:
SMILES | CSC inhib | MT1-MMP act inh | MT1-MMP act inh RFP | Rce1 inh | Env fusion inh | eIF4H FP inh | PABP FP inh | Yeast UUG start
O=C(NN1C(=O)c2cc(Br)ccc2NC1c1cc(Br)cc(Br)c1O)c1ccncc1 (stereo not drawn) | 32 | 2 | 0 | i | 13 | -7 | 0 | nt
O=C(Cn1c2ccc(F)cc2c2nc3n(c(=O)c21)CCS3)N1CCCC1 | -9 | -5 | -5 | i | nt | 4 | -14 | -3
CCOC(=O)C1=C(COC(=O)CNC(=O)c2cc(OC)c(OC)c(OC)c2)NC(=O)NC1C (stereo not drawn) | -6 | -6 | -3 | i | 2 | nt | nt | 18
Cc1ccc(C2=NN(C(=O)C3CCCO3)C(c3ccco3)C2)cc1 (stereo not drawn) | -31 | 1 | -4 | i | 12 | -7 | 2 | -8
Cc1ccccc1NC(=O)c1sc(NC(=O)COc2ccccc2)c(C#N)c1C | -7 | 2 | -13 | i | 11 | -2 | -9 | 1
CCc1nc2ccc(C(=O)N3CCN(c4ccccc4)CC3)cc2nc1CC | 14 | 2 | 2 | i | -1 | -9 | -8 | nt
CCCCOc1c(Br)cc(/C=C2\N=C(C)OC2=O)cc1OCC | -15 | -1 | -1 | i | nt | 4 | -2 | -1
CC(C)CC1NC(=O)c2cc3ccccc3cc2-n2c1nc1ccc(Cl)cc1c2=O (stereo not drawn) | nt | -6 | -12 | nt | -27 | nt | nt | -21
CN1CCc2c(sc3c2C(=O)NC(c2ccccn2)N3)C1 (stereo not drawn) | -16 | -4 | 25 | i | -21 | ? | ? | -24
CN1C(=S)SC(/[N+]([O-])=C/c2c(F)cccc2Cl)C1(C)C (stereo not drawn) | -5 | 2 | 4 | i | 18 | -7 | 6 | -27
O=C(CSc1ncccn1)N/N=C/c1cccc(OC2CSC2)c1 | -11 | 3 | 1 | i | 9 | -2 | -5 | -2
CCCCCCC(=O)N/N=C/Cc1ccccc1 | 7 | 1 | 0 | i | nt | 7 | -5 | -16
Cc1ccc(NC(=O)C2CCN(C(=O)c3ccco3)CC2)cc1 | nt | 0 | 1 | i | 0 | -43 | -37 | -8
Cc1cc(C)n(CC(=O)N2CCCC(N3CCN(c4ccccc4C)CC3)C2)n1 (stereo not drawn) | 15 | 3 | -3 | i | -72 | 19 | 9 | -1
O=C(NCCO)C(=O)Nc1cc2c3c(c1)CC(=O)N3CCC2 | 10 | 2 | 5 | i | 3 | nt | nt | -19
O=C1N(Cc2ccccc2)c2ccccc2C12OCCO2 | 1 | -2 | -1 | i | 7 | -10 | -7 | -27
COC(=O)C1=C(SC)N(c2ccccc2)C(c2ccccc2)CC1=O (stereo not drawn) | 1 | 0 | 4 | i | nt | -2 | 17 | nt
CC1CCCN(Cc2c(O)ccc3c4c(c(=O)oc23)CCCC4)C1 (stereo not drawn) | 4 | 4 | -1 | ? | 2 | -2 | -2 | 6
CCOC(=O)/C=c1\s/c(=C\c2ccc(C(F)(F)F)cc2)c(=O)n1CC(=O)NCc1ccco1 | 15 | -6 | -1 | i | -6 | -11 | -1 | nt
Brc1cccc(/C=N/Nc2nc(N3CCCCC3)nc(N3CCCCC3)n2)c1 | -2 | nt | nt | i | nt | 2 | -6 | nt
Cc1cc(=O)[nH]c(-c2cccnc2)n1 | -3 | 5 | -1 | i | 4 | 0 | -2 | -2
CC1CC1C(=O)OCC(=O)Nc1ccc(S(=O)(=O)N2CCOCC2)cc1 (stereo not drawn) | 1 | 0 | -1 | nt | -21 | nt | nt | -11
COc1ccc(CNC(=O)Cn2nc(-c3ccc4c(c3)OCCO4)ccc2=O)cc1 | 1 | 3 | -1 | i | -51 | -10 | 10 | -14
COc1cc(OC)cc(C(=O)NC(C(=O)NNC(=O)c2cc(Cl)ccc2OC)C(C)C)c1 (stereo not drawn) | 0 | 1 | 0 | nt | 6 | nt | nt | -7
CCC1(c2ccccc2)NC(=O)N(CC(=O)Nc2ccc(S(=O)(=O)Nc3ncccn3)cc2)C1=O (stereo not drawn) | -9 | -5 | 0 | i | 9 | nt | nt | -21
O=C(C1=C(O)C(=O)N(c2ncccn2)C1c1cccs1)c1ccco1 (stereo not drawn) | -3 | -27 | 6 | i | -10 | ? | ? | nt

Screening results as filed in PubChem.
